D2 potentiator: potentiates the human D2 dopamine receptor allosterically; potentiation, % (concentration not given with the values); 360,000 tested, 0.23% active; DiscoveRx D2 beta-arrestin cells, luminescence, 90 min; 100% = 57 uM dopamine signal; active = potentiation of 50% or more; inconclusive = 30% to 50%; inactive = 30% or less;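 note: compound concentration not given in the record; tested on top of an EC20 dose of dopamine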
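PathHunter beta-arrestin assay in DiscoveRx D2 cells. Compounds were added with an EC20 of dopamine (50 nM final) for 90 min at 37 deg C. Luminescence was read 1 h after detection reagent, with 57 uM dopamine as the EC100 control.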
TRPML1 agonist: activates the human TRPML1 channel. Q9GZU1. TRPML1-expressing cells, Ca2+ dye fluorescence, FDSS; host cell line not named in the record; reference of the full effect not given here. activation, % (no concentration beside the values). 410,000 tested, 0.12% active. AID 624414; in the data active = activation above about 50%; inconclusive = about 30% to 50%; inactive = below about 30%; note: 0% is about no effect; the text of the record puts the active cut at 80%
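Agonist activity was taken from a 110 s kinetic Ca2+ dye read on the FDSS after pinning compounds onto TRPML1-DL cells. The cells were seeded at 1,500/well with Tet inducer, incubated about 16 h, then dye-loaded at room temperature.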
TRPML1 blocker: blocks the human TRPML1 channel; Q9GZU1; TRPML1-inducible cells, Ca2+ dye fluorescence, FDSS; hits give low values; inhibition of EC80 agonist-evoked calcium signal; activity change, negative = inhibition, % (no concentration beside the values); 390,000 tested, 0.02% active; AID 624415; in the data active means activity change below about -50%; inconclusive means about -30% to -50%; inactive means above about -30%;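 note: stimulus is agonist 54-4 at its EC80 concentration; % is set by controls: 0 for no effect and ±100 for the full control effect; compound concentration not given in the record; the text of the record puts the active cut at -80%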
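TRPML1-DL cells, Tet-induced overnight (~16 h, 37 °C) at 1,500 cells/well, were loaded with Ca8 no-wash dye plus quencher for 45-90 min at room temperature. Compounds were pinned during FDSS kinetic reading; agonist 54-4 at EC80 (4 uM final) then added.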
D2 agonist: activates the human D2 dopamine receptor; P14416; DiscoveRx PathHunter D2 beta-arrestin, luminescence, 90 min; 100% = 57 uM dopamine signal; activation, % (no concentration beside the values); 360,000 tested, 0.084% active; in the data active = activation above about 40%; inconclusive = about 15% to 40%; inactive = below about 15%; note: compound concentration not given in the record; the text of the record calls up to 30% inactive
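DiscoveRx PathHunter D2 beta-arrestin cells (2,100/well) attached overnight, then compound-stimulated 90 min at 37 C in HBSS/10 mM HEPES/0.1% Tween-20 buffer; beta-galactosidase complementation read by luminescence after 1 h at ambient temperature. Dopamine 57 uM final (EC100) as control.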
PINK1 modulator: modulators of PINK1 expression; PINK1 immunofluorescence, high-content cytometry, 24 h; Potency, µM (highest dose often 76.6 µM), without a hit: at the highest dose activation (PINK1 increase), hits mostly activators; 410,000 tested, 0.2% active; active = well fitted activation curve with a large enough effect; inconclusive = small, poorly fitted or top-dose-only effect; inactive = flat fitted curve, though single readings scatter; cell line not stated here;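 note: potency is the fitted concentration of half-maximal effect; % of control where 0% means no effect; nearly all actives have a fitted effect of over 65% in size; a mitochondrial uncoupler was the plate control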
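Readout is PINK1 immunofluorescence, quantified alongside mitochondrial, cell and nuclear markers by laser-scanning microplate cytometry. Cells from a stable line were exposed to compound titrations (5 concentrations) for 24 hours, with CCCP controls.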
Six1-Eya2 inh: Six1/Eya2 interaction inhibition. AlphaScreen GST-Six1/His-Eya2 binding, biochemical; hits give low values; control for the full effect not named in the record. Q15475+O00167. 360,000 tested, 0.56% active. activity change, % (test concentration not listed); in the data active = activity change below about -65%; inconclusive = about -30% to -65%; inactive = above about -30%; note: % is set by controls: 0 for no effect and ±100 for the full control effect; compound concentration not given in the record
Target sequence (O00167 whole entry, looked up): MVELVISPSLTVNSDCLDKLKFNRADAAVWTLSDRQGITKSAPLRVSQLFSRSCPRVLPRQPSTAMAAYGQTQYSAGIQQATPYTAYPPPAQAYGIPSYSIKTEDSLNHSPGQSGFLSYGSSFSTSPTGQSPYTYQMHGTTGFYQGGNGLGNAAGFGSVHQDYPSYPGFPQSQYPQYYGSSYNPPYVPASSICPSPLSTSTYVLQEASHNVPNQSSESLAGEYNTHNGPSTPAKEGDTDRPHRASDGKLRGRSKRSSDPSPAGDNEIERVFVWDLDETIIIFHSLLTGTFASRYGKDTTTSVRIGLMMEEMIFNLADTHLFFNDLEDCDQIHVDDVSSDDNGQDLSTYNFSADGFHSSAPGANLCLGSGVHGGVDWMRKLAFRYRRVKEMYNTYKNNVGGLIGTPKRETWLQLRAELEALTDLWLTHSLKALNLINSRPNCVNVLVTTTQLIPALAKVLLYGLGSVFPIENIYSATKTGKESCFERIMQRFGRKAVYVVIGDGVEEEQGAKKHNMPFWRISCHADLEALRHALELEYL
Target sequence (Q15475 whole entry, looked up): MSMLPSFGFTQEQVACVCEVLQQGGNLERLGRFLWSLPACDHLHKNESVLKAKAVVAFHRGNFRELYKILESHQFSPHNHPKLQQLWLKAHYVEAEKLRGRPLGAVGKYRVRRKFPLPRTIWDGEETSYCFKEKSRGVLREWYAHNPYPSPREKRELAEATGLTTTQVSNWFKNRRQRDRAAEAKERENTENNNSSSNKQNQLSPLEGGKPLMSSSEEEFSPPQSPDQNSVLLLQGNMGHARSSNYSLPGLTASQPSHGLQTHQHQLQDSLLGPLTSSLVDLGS
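AlphaScreen luminescence read after one hour at 37 °C in darkness. Pin-transferred compounds met GST-Six1 and His-Eya2 protein (5X stock 250 nM/500 nM) plus glutathione donor and Ni-chelate acceptor beads (5X, 50 ug/mL).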
Active calls of the source: *; u = inconclusive; x = no result given; & = joins results of further samples; [ ] = remark or other dose.

Screens in order: TRPML1 agonist, D2 agonist, Six1-Eya2 inh, D2 potentiator, PINK1 modulator, TRPML1 blocker
> CCC(=O)N1CCc2cc(S(=O)(=O)CCC(=O)Nc3nc(C)cs3)ccc21
    -0.4, 11, 4, -8, 3.7%, -1
> Cc1ccc(-c2nc(CS(=O)CC(=O)NCCCc3ccccc3)c(C)o2)cc1 (stereo unspecified)
    -0.9, -3.4, -5, -10, 0.3%, -9
> COC(=O)[C@@H](Cc1c[nH]c2ccccc12)NCc1ccc(B(O)O)cc1
    1.1, -0.7, 16, 4, 0.7%, 19
> CCOC(=O)CSc1nnc2n(-c3ccccc3)c(=O)c3c4c(sc3n12)COC(C(C)C)C4 (stereo unspecified)
    -0.5, x, x, x, 2.0%, 8
> C=CCn1c(SCC(=O)c2ccc(OC)cc2)nnc1-c1cc2cccc(OC)c2o1
    2.3, 0.8, 6, 9, 6.5%, -9
> CCn1cc(C(=O)OCC(=O)NCc2ccc3c(c2)OCO3)c(=O)c2ccc(C)nc21
    0.2, -6.1, -8, -30, -3.0%, 5
> CC(=O)c1ccc(NC(=S)NCc2ccco2)cc1
    0.1, -5.1, 0, -2, 0.4%, 2
> CCOc1ccc(OCC)c(NC(=O)CCCN2C(=S)NC(C)(C)CC2C)c1 (stereo unspecified)
    -1.0, -3.5, -23, -5, 3.5%, 12
> Cc1ccc(Cl)c(Cn2cnc3c(cnn3C(C)(C)C)c2=O)c1F
    1.9, x, x, x, 2.5%, -12
> O=C(NCc1ccco1)C(=O)c1cn(CC(=O)N2CCCCCC2)c2ccccc12
    1.6, -6.7, 12, -5, 3.3%, 30
> COc1ccc(CN(C)CC(O)COC(c2ccccc2)c2ccccc2)c(OC)c1OC (stereo unspecified)
    0.7, -0.2, -12, -12, 2.6%, 6
> Cc1ccc(OCC(=O)NNC(=O)C(=O)N2CCCC2)c(C)c1
    0.3, 3.8, 9, -5, -0.6%, -3
> CCOC(=O)[C@]12CCCC=C1N(Cc1ccc(Cl)cc1Cl)C(=O)[C@H](CC(=O)NCCCOC)C2
    1.0, x, 19, x, u, x
> COc1ccc(NC(=O)CN2CCN(S(=O)(=O)c3ccc(F)cc3)CC2)cc1Cl
    1.5, 2.6, 3, -12, 0.9%, 29
> Cc1cccc(NC(=O)CN2C(=O)c3ccccc3Sc3ncccc32)c1C
    0.0, x, x, x, 0.0%, 3
> Cn1c(=O)c2sccc2n2c(CCC(=O)NCc3ccc(Cl)cc3)nnc12
    1.9, x, x, x, 1.5%, 25
> Cc1cc(C)c2cc(C(=O)N3CCN(c4ncccc4C(F)(F)F)CC3)[nH]c2c1
    -0.2, -4.0, -7, 5, 2.6%, 4
> Cc1cc(C)c(C(=O)Nc2ccc(Br)c(C(F)(F)F)c2)c(C)c1
    10, 1.7, 16, -13, 13µM*, 15
> O=c1c2ccccc2nc(COc2ccccc2)n1/N=C/c1ccc(O)cc1O
    0.7, 13, u, 5, 0.2%, -10
> N#C/C(=C/c1ccc(CNC(=O)C(=O)Nc2cc(Cl)cc(Cl)c2)o1)C(=O)NCc1cccnc1
    -0.3, 1.9, 0, -8, 4.9%, 9
> O=C(CCS(=O)(=O)c1ccc(Cl)cc1)Nc1ccc(N2CCOCC2)cc1
    0.2, 2.5, -6, -1, 1.4%, 12
> COCCCNC(=O)c1cc2c(=O)oc3ccc(C)cc3c2s1
    -0.5, x, x, x, 4.4%, -15
> C[C@@H]1CN([C@@H](C)CO)C(=O)c2cc(Br)cnc2O[C@@H]1CN(C)Cc1ccc(Oc2ccccc2)cc1
    -0.6, -5.1, -12, -4, u, 17
> O=S(=O)(Nc1ccc(S(=O)(=O)N2CCCC2)cc1)c1ccc(F)cc1F
    -0.6, -2.5, 11, -2, 0.2%, -5
> CN(C)CCCNc1nc2cc(-c3cnn(Cc4ccccc4)c3)sc2c(=O)n1C
    -0.2, -5.1, -2, -8, 9.5%, x
> O=C(c1ccccc1)N1N=C(c2ccccc2)CC1c1ccc2nccnc2c1 (stereo unspecified)
    -0.5, -4.1, 0, -3, 1.1%, -8
> O=c1[nH]c(/C=C\c2ccc(O)cc2)nc(O)c1[N+](=O)[O-]
    -0.4, -4.4, -19, -5, 0.4%, 18
> COC(=O)c1ccc2c(=O)[nH]c(COC(=O)c3cccc(S(=O)(=O)N4CCOCC4)c3)nc2c1
    0.8, -5.6, -12, -18, -2.7%, -4
> CCS(=O)(=O)N1CCC(C(=O)N2CCN(Cc3ccccc3)CC2)CC1
    0.5, 1.0, 8, 1, -1.1%, -6
> Cn1c(=O)c2sccc2n2c(CCC(=O)NCc3ccccc3)nnc12
    0.1, x, x, x, 1.0%, 7
> O=[N+]([O-])c1ccc(Cl)c(CN2CCSCC2)c1
    -0.1, -2.4, -14, -20, -2.4%, 4
> CCOC(=O)c1ccc(N2C(=O)c3n[nH]c(-c4ccco4)c3C2c2cccc([N+](=O)[O-])c2)cc1 (stereo unspecified)
    0.5, -5.5, -26, 1, 25%, -19
> CCN(CC(=O)Nc1c(F)cccc1F)C(=O)c1ccc(S(=O)(=O)N2CCCCCC2)cc1
    -1.1, -2.3, 0, 6, 0.3%, 7
> O=C(O)C(Cc1ccccc1[N+](=O)[O-])N1C(=O)c2ccccc2C1=O (stereo unspecified)
    0.1, -1.8, 7, -14, -2.4%, -9
> CC(OC(=O)C1CCN(S(=O)(=O)c2ccc(C(C)(C)C)cc2)CC1)C(=O)N(C)C1CCCCC1 (stereo unspecified)
    95*, -1.9, -1, -1, 20%, -17
> CC(C)(C)n1nnnc1C(c1ccccc1)N1CCN(c2ncccn2)CC1 (stereo unspecified)
    -0.8, x, 2, x, 1.0%, x
> Fc1ccc(-c2nc(Nc3cccc(Cl)c3)nc3c2COc2ccccc2-3)cc1
    0.1, x, x, x, 1.8%, 7
> Oc1ccccc1/C=N/[n+]1ccccc1
    -0.1, 1.0, 8, -3, -1.2%, 9
> CCCNC(=O)c1cn(CC)c2cc(N3CCN(C)CC3)c(F)cc2c1=O
    0.6, -3.1, 0, 16, 1.1%, -19
> N#Cc1ccc(S(=O)(=O)N2CCN(Cc3cccs3)CC2)cc1
    -0.3, -2.4, -1, -3, -0.8%, 0
> O=C(NC1(C(F)(F)F)NC(=O)N(c2ccc(F)cc2)C1=O)c1ccncc1 (stereo unspecified)
    -0.3, -6.8, -2, 10, -1.2%, 4
> O=S1(=O)CC(N2CCN(CCO)CC2)CN1CCc1ccccc1 (stereo unspecified)
    0.6, -3.9, 7, -6, 5.9%, -8
> COC(C(=O)Nc1c(F)cccc1F)c1ccccc1 (stereo unspecified)
    6.6, -10, -4, -38, 2.4%, -10
> Cc1cc(NC(=O)COc2ccc3ccccc3c2)no1
    -0.5, -0.3, -2, 1, 15%, 9
> O=C(Nc1cccc(Cl)c1)OCc1cncs1
    1.3, -1.4, -24, -19, 11%, -17
> CCC(C(=O)Nc1c(C)cc(C)cc1C)n1c(=O)c(-c2ccccc2NC(C)=O)nc2ccccc21 (stereo unspecified)
    1.0, x, x, x, 2.5%, 6
> C=CCn1c(Cn2nnc3ccccc32)nnc1SCC(=O)N/N=C/c1cc(Br)cc(OC)c1O
    -1.1, -3.0, -22, -9, 0.9%, 1
> CC(=O)Nc1ccc(C(=O)N2CCCCC2c2cc(C(=O)Nc3ccccc3Cl)no2)cc1 (stereo unspecified)
    -0.3, 6.3, 1, -5, 1.2%, x
> COc1ccc(-c2nnc(SCC(=O)NCc3cccs3)n2C)cc1
    -0.6, -0.5, -1, -9, 0.9%[38.3 µM], -11
> CCOC(=O)c1c(S(=O)(=O)N2CCCC(C(=O)Nc3ccc(C)cn3)C2)c(C)n(C)c1C (stereo unspecified)
    -0.9&-1.1, 0.1, -6, 0, -0.4%&1.6%, 6&-19
> Cc1cc(NCCN2CCOCC2)n2ncc(-c3ccccc3)c2n1
    -0.3, -2.1, -5, -6, 6.1%, 30
> Cc1ccc(NC(=O)CCC(=O)c2ccc(F)cc2)cc1Cl
    0.6, -2.3, 0, -30, -0.4%, 0
> O=C(O)/C=C/C(=O)Nc1nc(-c2ccc3ccccc3c2)cs1
    2.3, -1.4, 4, -4, -0.2%, 19
> Cc1n[nH]c2ccc([N+](=O)[O-])cc2c1=O
    0.3, 4.7, 2, -5, 1.5%, 10
> CN(c1ccc(F)cc1)S(=O)(=O)c1ccc(Cl)c(C(=O)NCc2ccco2)c1
    -2.0, 0.0, -6, 11, 2.0%, 13
> Cc1nc(NC(=O)CN2CCOCC2)sc1-c1ccccc1
    -0.5, -1.1, -3, 2, 5.5%, -10
> CC(C)C1N=C(c2ccc3c(c2)OCO3)CC(c2ccccc2O)N1 (stereo unspecified)
    1.7, 2.2, 2, -3, -3.7%, 42
> CCOC(=O)Nc1ccc(NC(=O)c2c(OC)cccc2OC)cc1
    -0.3, 0.2, 0, -5, -4.2%[38.3 µM], -6
> CCCn1c(N2CCN(Cc3ccc(Cl)cc3)CC2)nc2ccccc21
    2.9, -4.1, 1, -11, 24%, 7
> Cc1cc(C)c(OCC(=O)N(Cc2cccs2)C2CCS(=O)(=O)C2)c(C)c1 (stereo unspecified)
    -0.6, -15, 1, 12, 0.7%, -2

Results in PINK1 modulator, TRPML1 blocker and Six1-Eya2 inh (three entries from above):
molecule | PINK1 modulator | TRPML1 blocker | Six1-Eya2 inh
N#Cc1ccc(S(=O)(=O)N2CCN(Cc3cccs3)CC2)cc1 | -0.8% | 0 | -1
O=C(O)/C=C/C(=O)Nc1nc(-c2ccc3ccccc3c2)cs1 | -0.2% | 19 | 4
Oc1ccccc1/C=N/[n+]1ccccc1 | -1.2% | 9 | 8

Continuation:
Screens in order: TRPML1 agonist, D2 agonist, Six1-Eya2 inh, D2 potentiator, PINK1 modulator, TRPML1 blocker
> CCSc1nc2c([nH]c3ccccc32)c(=O)n1-c1cccc(OC)c1
    0.8, x, x, x, -1.0%, -10
> CC(=O)Nc1ccc(CNc2nc3cc(-c4cccc(C(F)(F)F)c4)sc3c(=O)n2C)cc1
    0.2, -3.1, 5, -12, 5.6%, x
> Cc1cccc(/C(N)=N/OC(=O)COc2ccc(Cl)cc2)c1
    4.0, -1.8, 33, -1, 0.4%, -7
> COc1ccccc1CNC(=O)C/C(C)=N/NC(=O)Cc1ccc(OC)c(OC)c1
    1.4, -0.5, 5, 8, -1.4%, -6
> COCCn1c(=S)[nH]c2cc(C(=O)NCC3CCCO3)ccc2c1=O (stereo unspecified)
    0.0, 0.4, 2, -8, 5.4%[38.3 µM], -6
> O=C(NCc1ccc(Cl)cc1)c1ccc2nc[nH]c2c1
    0.9, -4.9, 7, 1, 5.4%, 10
> Cc1cc(Cl)c(Cl)cc1S(=O)(=O)NCCCn1ccnc1
    0.8, -4.2, 0, -3, 1.6%, -13
> O=C(Nc1ccccc1)O/N=C/c1ccncc1
    -0.1, -2.0, 16, -12, 0.2%, -11
> Cc1cc2c(=O)[nH]c(Cc3ccccc3)nc2s1
    1.0, 0.0, 3, -10, -3.1%, -19
> O=C(Nc1ccccc1)Nc1c(F)cccc1F
    -0.3, 3.7, 5, -9, -0.6%, -8

Bioassay records (PubChem BioAssay)
